SARS PLP yeast: inhibitors of SARS-CoV papain-like protease in yeast | S. cerevisiae expressing SARS-CoV PLpro, growth rescue; control for the full effect not named in the record | actives 0.19% (n = 330,000) | Potency, µM (series often up to 32.9 µM), inactives show at the highest dose activity, positive = growth rescue | AID 485353; active means well fitted rising curve with a large enough effect; inconclusive means small, poorly fitted or top-dose-only effect; inactive means no such curve, though single readings can be large or run the other way; note: 0% is about no effect; nearly all actives have a fitted effect of over 55% in size; growth read by luminescence after 48 h
NS1 function inh: blocks influenza NS1 protein function | actives 0.4% (n = 270,000) | AID 2326 | S. cerevisiae slowed by influenza A NS1, growth recovery by OD600 | Potency, µM (highest dose often 46.1 µM), without a hit: at the top dose activity, positive = more growth; active means well fitted rising curve with a large enough effect; inconclusive means small, poorly fitted or top-dose-only effect; inactive means no such curve, though single readings can be large or run the other way; note: nearly all actives have a fitted effect of over 50% in size
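Recovery from NS1-induced slow growth read by OD600 in budding yeast switched to galactose assay medium (pH 6.0, -URA) at 1:100 dilution. Compound 23 nl per well; the matching strain lacking NS1 serves as control.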
Cruzain noTriton: inhibitors of Trypanosoma cruzi cruzain without detergent. P25779. AID 1476. actives 2.3% (n = 200,000). purified cruzain, Z-FR-AMC fluorescence, no detergent. Potency, µM, without a hit: max response, negative = inhibition, hits mostly inhibitors;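 note: plate controls were enzyme without inhibitor for no effect and buffer without enzyme for full effect; nearly all actives have a fitted effect of over 40% in size; top concentration of the series not given in the record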
Target sequence (P25779 123-467 limits assumed): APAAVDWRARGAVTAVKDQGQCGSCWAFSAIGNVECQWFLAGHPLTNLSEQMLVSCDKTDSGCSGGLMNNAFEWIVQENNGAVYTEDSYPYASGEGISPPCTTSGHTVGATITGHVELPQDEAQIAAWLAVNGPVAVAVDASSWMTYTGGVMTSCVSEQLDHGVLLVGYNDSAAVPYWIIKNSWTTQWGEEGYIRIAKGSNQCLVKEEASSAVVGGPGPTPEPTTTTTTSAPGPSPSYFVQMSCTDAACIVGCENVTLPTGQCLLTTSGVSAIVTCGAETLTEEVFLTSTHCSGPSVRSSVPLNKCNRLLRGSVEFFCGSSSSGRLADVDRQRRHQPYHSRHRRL
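Purified cruzain at 1.5 nM, pre-incubated 15 min with compound at room temperature in 100 mM sodium acetate pH 5.5, 5 mM DTT, 0.00005% Triton X-100. Reaction started with 2 uM Z-FR-AMC; AMC fluorescence increase over 60 s gives rate.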
LASV entry inh: blocks Lassa virus binding to or entry into cells; Potency, µM (doses to about 37.9 µM), for the others: top-dose activity change, negative = inhibition, usual class: inhibitors; Lassa virus pseudotype entry inhibition, cell reporter; control for the full effect not named in the record; actives 1.2% (n = 300,000); active means well fitted inhibition curve with a large enough effect; inconclusive means small, poorly fitted or top-dose-only effect, or effect the other way; inactive means flat fitted curve, though single readings scatter; tested in HEK293 cells; note: % is set by controls: 0 for no effect and ±100 for the full control effect; nearly all actives have a fitted effect of over 50% in size; luciferase read-out
Cruzain Triton: blocks cruzain activity in presence of Triton detergent | purified cruzain, Z-FR-AMC fluorescence, 0.01% Triton | actives 0.43% (n = 200,000) | P25779 | Potency, µM, for inactives: max response, negative = inhibition, hits mostly inhibitors;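 note: plate controls were neutral wells for no effect and buffer without enzyme for full effect; nearly all actives have a fitted effect of over 40% in size; top concentration of the series not given in the record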
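Detergent-containing run (0.01% Triton X-100) in acetate buffer pH 5.5 with 5 mM DTT: enzyme at 1.5 nM final, 15 min compound preincubation at room temperature, then 2 uM Z-FR-AMC substrate. Activity taken as 60 s fluorescence increase at 360/450 nm.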
RE007 growth inh: less growth of the S. pombe RE007 Vpr strain; S. pombe RE007 Vpr strain, BacTiter-Glo ATP luminescence, 24 h; control for the full effect not named in the record; Potency, µM (titrated, usually from 92.2 µM), for inactives: at the top dose activity change, negative = less growth; actives 0.21% (n = 360,000); AID 651644; active = well fitted falling curve with a large enough effect; inconclusive = small, poorly fitted or top-dose-only effect; inactive = no such curve, though single readings can be large or run the other way;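 note: % is set by controls: 0 for no effect and ±100 for the full control effect; nearly all actives have a fitted effect of over 50% in size; the assay follows cell death caused by Vpr and the record does not say whether a fall means rescue or toxicity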
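Fission yeast RE007 carrying one integrated HIV-1 vpr copy, seeded at OD 0.01 in PMG+AL medium with 23 nL pinned compound. Grown 24 h at 30 degrees; viability read by BacTiter-Glo luminescence after 5 min.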
MARV entry inh: Marburg virus entry inhibition. Marburg virus pseudotyped entry inhibition, cell reporter; control for the full effect not named in the record; about a third of the inactives were read at about 46 µM. Potency, µM (titrated, usually from 37.8 µM), for the others: top-dose activity change, negative = inhibition, hits mostly inhibitors. actives 1.8% (n = 300,000); active = well fitted inhibition curve with a large enough effect; inconclusive = small, poorly fitted or top-dose-only effect, or effect the other way; inactive = flat fitted curve, though single readings scatter; tested in HEK293 cells; about a fifth of its hits are not listed in these tables; note: % is set by controls: 0 for no effect and ±100 for the full control effect; luciferase read-out
2A StopGo: FMDV 2A StopGo reporter, luciferase signal. Potency, µM (series often up to 57.9 µM), for the others: at the top dose signal change, negative = less light. actives 1.2% (n = 410,000). human cells with a luciferase reporter of 2A StopGo recoding; control for the full effect not named in the record; active = well fitted falling curve with a large enough effect; inconclusive = small, poorly fitted or top-dose-only effect; inactive = no such curve, though single readings can be large or run the other way; tested in HEK293T cells; note: % is set by controls: 0 for no effect and ±100 for the full control effect; nearly all actives have a fitted effect of over 45% in size; luciferase light after 4 h
* hit, by the source's call; ? = inconclusive; . = no result given; & = joins results of further samples; [ ] = another dose, or the depositor's remark. Unless noted, calls come from the whole dose curve; as a rule, active = well fitted curve in the direction sought with a large enough effect; inconclusive = small, poorly fitted or top-dose-only effect, or another doubt; inactive = no such curve, though single readings can be large; an effect the other way counts as inactive or inconclusive. Potency is the fitted concentration of half-maximal effect.

SMILES	SARS PLP yeast	NS1 function inh	Cruzain noTriton	LASV entry inh	Cruzain Triton	RE007 growth inh	MARV entry inh	2A StopGo
Cc1nc2ccccc2c(=O)n1-c1ccc(NC(=O)c2cccc([N+](=O)[O-])c2)cc1	.	.	-4%	-4%[46.1 µM]	-1.5%	.	.	?
CC(C)Cc1nc2oc3c(N4CCN(C)CC4)ncnc3c2c2c1CCCC2	-1%	-1%	15%	.	4.8%	.	0%	.
COc1ccc(-c2cc(NCc3ccccn3)n3ncnc3n2)cc1	0%	-18%	0%	.	8.0%	.	-1%	-15%
CC(C)CCNC(=O)CSCc1cnn(-c2ccccc2)c1-n1cccc1	.	.	-1%	-2%[46.1 µM]	-1.2%	.	0%[46.1 µM]	-15%
CCn1cc2nc(SCc3cc(C)ccc3C)n(Cc3ccc(Cl)cc3)c(=O)c2n1	.	.	-14%	-17%[46.1 µM]	3.7%	.	.	?
CC(=O)NCCn1c(SCC(=O)OCc2ccccc2)nc2ccccc2c1=O	3%	-11%	?	-11%	3.0%	17%	?	-20%
Cc1ccc(-c2nnc(Nc3cccc(O)c3)c3ccccc23)cc1S(=O)(=O)N1CCOCC1	.	.	1%	?	-9.0%	.	.	-48%
Cc1cccc(NC(=O)CSc2cc(C(=O)c3nccn3C)c3ccccc3n2)c1	2%	-2%	7%	?	-1.1%	-2%	6%	0%
COc1ccc(Cc2nc3ccc(C(=O)NCc4cc(Br)ccc4OC)cc3o2)cc1	.	.	?	-10%[46.1 µM]	-3.2%	.	.	-23%
O=C(COC(=O)CNC(=O)c1ccccc1)NCCNC(=O)COC(=O)CNC(=O)c1ccccc1	-11%	.	.	0%	.	41%	?	-2%
C/C(=C\C(=O)c1ccc(F)cc1)Nc1ccc(N2CCOCC2)cc1	-4%	-15%	-12%	-37%	0.4%	-4%	23%	-23%
CC1SC(C)C(=O)N(CC(=O)Nc2ccc([N+](=O)[O-])cc2)C1=O (stereo not given)	-1%	.	.	-13%	.	3%	-7%	-1%
O=C1NC(=O)C2(Br)Nc3ccc(Br)cc3C(=O)C2N1 (stereo not given)	.	.	.	-14%[46.1 µM]	.	1%	-6%[46.1 µM]	-7%
Brc1c(CSc2nnc(-c3ccco3)o2)nc2ccccn12	-7%	-129%	-9%	?	1.3%	-23%	6%	24%
O=C(CSc1nnc(CNC(=O)c2cccs2)o1)Nc1cccc(Cl)c1	4%	-2%	.	30%[46.1 µM]	.	12%	?	2%
O=C(NCc1n[nH]c(=S)n1-c1ccc(Cl)c(Cl)c1)c1cccs1	-1%	.	.	10%	.	-8%	-10%[46.1 µM]	-12%
COc1ccc(NC(=O)/C(=C\c2cccs2)NC(=O)c2ccco2)cc1	-3%	3%	.	0%	.	7%	2%	-5%
COc1ccc(N(CC(=O)Nc2ccccc2C)S(=O)(=O)c2ccccc2[N+](=O)[O-])c(OC)c1	-1%	2%	.	?	.	3%	-24%[46.1 µM]	7%
O=c1ccc(-c2ccc(S(=O)(=O)Nc3cccc(F)c3)o2)n[nH]1	5%	6%	.	.	.	1%	.	13%
O=C(O)C1(S(=O)(=O)c2ccc(Cl)cc2)CCC1	0%	-10%	.	18%	.	4%	9%	-6%
CCOC(=O)C1CCCN(C(=O)Cc2c(F)cccc2Cl)C1 (stereo not given)	1%	0%	5%	4%	3.2%	-6%	-11%	.
COc1ccc(S(=O)(=O)N/N=C\c2ccc(OC)c(COc3ccc(C)cc3[N+](=O)[O-])c2)cc1	-5%	1%	?	?	-1.1%	-8%	?	31%[activator]
COC(=O)c1ccc(NC(=O)c2ccc(NC(=O)c3ccco3)cc2)cc1	.	7%	.	-16%[46.1 µM]	.	10%	?	29%
COc1cccc(-n2ccnc2SCC(=O)Nc2ccccc2)c1	4%	-79%	8%	-6%	-1.3%	-16%	15%	-15%
Oc1ccc(Cl)cc1CNc1nccs1	-4%	-10%	.	?	.	-23%	14%[46.1 µM]	5%

Next records:
SMILES	SARS PLP yeast	NS1 function inh	Cruzain noTriton	LASV entry inh	Cruzain Triton	RE007 growth inh	MARV entry inh	2A StopGo
CN(C)CCCn1c(N)c(C#N)c2nc(C#N)c(C#N)nc21	3%	-1%	-11%	16µM*	-6.6%	-3%	?	?
CC(=O)c1c(C)[nH]c(C(=O)OCCCCN2C(=O)c3ccccc3C2=O)c1C	-6%	-23%	15%	?	-3.5%	20%	8.2µM*	13µM*
CCCNC(=O)c1cccc(S(=O)(=O)N2CC3(C)CC2CC(C)(C)C3)c1 (stereo not given)	3%	.	.	-16%	.	29%	-9%	-2%
CC(C)(C)N=Cc1c(O)ccc2oc3c(c12)CCCC3	-1%	-57%	.	.	.	-10%	.	-22%
COc1ccc(/C=C(/NC(=O)c2cccs2)C(=O)Nc2ccc(C)cc2)cc1OC	-5%	1%	?	-17%	-4.7%	-3%	3%	-21%
CN1Cc2ccccc2CC1CNCc1c(C(=O)N2CCCC2)nc2ccccn12 (stereo not given)	-1%	4%	.	16%[46.1 µM]	.	-3%	28%[46.1 µM]	5%
CCOC(=O)C1CCCN(CCC(=O)Nc2cccc(Cl)c2C)C1 (stereo not given)	3%	7%	.	.	.	-2%	.	-7%
O=C(NCCN1CCN(C(=O)C(c2ccccc2)c2ccccc2)CC1)C(=O)Nc1ccccc1	6%	4%	16%	5%	-4.5%	19%	-6%	-7%
CC(C)c1ccc(-n2c(O)c(/C=N/NC(=O)c3ccncc3)c(=O)[nH]c2=O)cc1	13%	-12%	-22%	-18%	-10%	5%	3%	0%
CC(C)CN(CCCNC(=O)CN1N=C(c2ccccc2)CCC1=O)CC(C)C	.	.	2%	15%[46.1 µM]	-0.1%	.	.	-25%
CCc1ccc(C2CC(c3cccc(Cl)c3)n3nc(N)nc3N2)cc1 (stereo not given)	0%	?	8%	2%	-6.6%	12%	-4%	-3%
c1ccc(-c2nc3ccccc3[nH]2)nc1	-47%	4.5µM*	-9%	?	-4.1%	-6%	-32%	-9%
Cc1cc(=O)n(C)c(=O)n1CCCCCOc1cccc([N+](=O)[O-])c1	-6%	-7%	11%	-5%	-6.9%	9%	-15%	?
CCC(C)[C@H](NS(=O)(=O)c1ccc(C)cc1)C(=O)N1CCC(C(=O)N2CCC(C(N)=O)CC2)CC1 (stereo not given in full)	5%	-6%	.	.	.	2%	.	1%
O=C1[C@@H]2[C@H](Cc3ccc(O)cc3)N[C@]3(C(=O)Nc4ccccc43)[C@@H]2C(=O)N1c1ccc(F)cc1	7%	-6%	-5%	.	-3.5%	.	-3%	.
O=C(c1ccccc1)C(O)c1ccccc1 (stereo not given)	-1%	.	3%	.	-4.7%	-20%	.	-11%
Cc1ccc(/C=N/NC(=O)c2c[nH]c3ccccc23)o1	5%	0%	-8%	21%	0.0%	7%	18%	.
O=C(/C=C/c1ccccc1)OCCN1C(=O)c2ccccc2C1=O	-4%	-32%	.	-5%[46.1 µM]	.	-2%	16%[46.1 µM]	-2%
Cc1cccc2cc(CN(Cc3cccs3)C3(c4nnnn4C4CCCC4)CCCC3)c(=O)[nH]c12	2%	-27%	?	?	0.3%	5%	-2%&-2%	-22%
COc1ccc(CN(C)C(=O)c2cc(S(=O)(=O)Nc3ccccc3F)ccc2C)c(OC)c1	-2%	-14%	.	?	.	2%	-12%	13%
COc1cccc(CN(C(=O)Cc2c[nH]c3ccccc23)C(C(=O)NC2CCCCC2)c2cccs2)c1 (stereo not given)	-4%	7.1µM*	-26%	7%	2.2%	7%[3.69 µM]	10%	19%
CC(C)N(Cc1nccn1C)C(=O)c1cc(COc2cccc(C(F)(F)F)c2)on1	1%	-2%	.	.	.	-6%	.	-8%
COc1ccc(C(=O)OCC(=O)N2CCN(C(=O)c3ccco3)CC2)cc1OC	-2%	.	.	?	.	-1%	1%[46.1 µM]	-7%
COc1ccccc1/C=C1\SC(=S)N(CC(=O)NC2CCS(=O)(=O)C2)C1=O (stereo not given)	-1%	19%	.	.	.	13%	.	1%
COc1ccc(-n2cc(C(=O)NCCc3cc(OC)ccc3OC)c3ccccc3c2=O)cc1	.	.	17%	-6%[46.1 µM]	-13%	.	.	2%

Following part.
SMILES	SARS PLP yeast	NS1 function inh	Cruzain noTriton	LASV entry inh	Cruzain Triton	RE007 growth inh	MARV entry inh	2A StopGo
O=C(NC(=O)c1cccc(F)c1)Nc1nc(-c2ccc(F)cc2)cc(C(F)(F)F)n1	-4%	.	.	?	.	12%	-4%[46.1 µM]	2%
CN(CC(=O)N1CCN(c2ccccc2)CC1)S(=O)(=O)c1cnc[nH]1	-7%	1%	-1%	8%	2.8%	-14%	8%	8%
Nc1ccccc1-c1nnn(CC(=O)Nc2ccc3c(c2)OCCO3)n1	1%	0%	.	.	.	1%	.	1%
COC1=C/C(=C/c2c(N)n3c(nc2=O)sc2cc(S(C)(=O)=O)ccc23)C=CC1=O	2%	10%	.	.	.	-10%	.	9%
CCOC(=O)c1c(-c2ccccc2)csc1NC(=O)c1cc(-c2ccc(F)cc2)on1	.	.	3%	2%[46.1 µM]	-2.0%	.	-13%[46.1 µM]	-13%
Cc1ccc(CN2CCCCC2C(=O)Nc2ccc(Oc3cccnc3)cc2)o1 (stereo not given)	-5%	-2%	.	-22%	.	0%	?	5%
CCOC(=O)Cc1csc(NC(=O)c2csc(C)c2)n1	-10%	7%	5%	-2%	-3.2%	3%	15%	-22%
CC(C)(C)NC(=O)C(c1ccncc1)N(C(=O)c1csnn1)c1ccccc1 (stereo not given)	0%	4%	2%	10%	-2.6%	-9%	12%	.
COc1cc(OC)c(OC)cc1/C=C/c1nc2ccccc2c(=O)n1-c1ccc(Br)c(C)c1	.	.	?	2%[46.1 µM]	-0.1%	.	.	-24%
CC(NS(=O)(=O)c1ccc2c(c1)CCN2C(=O)CCCC(=O)O)c1ccccc1 (stereo not given)	.	.	-8%	4%[46.1 µM]	-2.2%	.	2%[46.1 µM]	9%
COc1ccccc1CNC(=O)CN1CCN(S(=O)(=O)c2cccs2)CC1	1%	.	.	-17%	.	-9%	7%	-13%
Cc1cc(C)nc(NS(=O)(=O)c2ccc(NC(=O)C(C)Oc3ccccc3F)cc2)n1 (stereo not given)	-1%	22%	.	21%	.	0%	2%[46.1 µM]	82%[activator]

Screening results deposited in PubChem BioAssay by National Center for Advancing Translational Sciences (NCATS).
